PrP UTR inh = inhibition of PrP 5' UTR reporter expression; cell-based PrP 5' UTR mRNA reporter, plate reader; inhibition, % (concentration not given with the values); actives 0.35% (n = 340,000);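 active = every replicate at 50% or more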;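 note: 0 = median of the neutral control wells; tested in H4 reporter cells; numbers are from one replicate; inactives centre near -14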
Sa RN4220 lethal = growth inhibition of S. aureus RN4220, primary screen, OD600; inhibition, % (test concentration not listed); 16 h; actives 0.33% (n = 330,000);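 active = z-score of -3 or lower and OD600 up to 0.18 on both plates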;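 note: plate controls were untreated cells for no effect and reference antibiotic for full effect; stock transfer was 100 nL into about 80 µL; one replicate is shown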
Autofluor counter = counter-screen for toxin protease inhibitors: compound fluorescence; compound autofluorescence counterscreen, microsphere flow cytometry; hits give high values; fluorescence intensity (concentration not given with the values); actives 3.1% (n = 360,000);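 active = at least 3 SD above the mean of all compounds, about 16000 in these data; inconclusive = too few beads counted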;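 note: 100 nL of 1 mM stock went into each well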
BJeLR lethal = MLPCN primary cell-based screen for lethality selective to Ras in HRASV12 cells; inhibition, % (test concentration not listed); AID 1554, 2009; actives 0.17% (n = 300,000); BJeLR (HRASV12) viability, CellTiter-Glo ATP luminescence, 48 h; reference of the scale not given here;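 active = replicate mean above 50%; inconclusive = above 50% but judged a plate artefact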;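 note: 50 nL library stock added to about 25 µL; numbers are from one replicate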
Mtb hypoxia rep = PubChem AID 1159583. M. tuberculosis hypoxia-regulated fluorescent reporter, fluorescence. fluorescence inhibition, % (no concentration beside the values). actives 0.1% (n = 300,000);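 active = 35 to 45% if threefold the growth effect, above 45% if 1.5-fold the growth effect; inactive = the rest, general growth blockers included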;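 note: wells of about 50 µL received 100 nL stock; 0% = vehicle wells and 100% = reference inhibitor wells; whole bacteria with a GFP reporter of the hypoxia response; strong numbers were not always called active; many hits fall short of the cut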
ugtP null kill = growth inhibition of ugtP-null S. aureus, primary screen, RN4220 ugtP deletion, OD600; 16 h; some inactives read as strong as hits; growth inhibition, % (test concentration not listed); actives 0.54% (n = 330,000); AID 1259309, 2017;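 active = z-score under -3 and OD600 up to 0.15 on both plates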;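 note: plate controls were untreated wells for no effect and antibiotic for full effect; wells of about 80 µL received 100 nL stock; the first replicate is given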
Mtb hypoxia rep growth = second read-out of Mtb hypoxia rep, no call of its own (marks repeat the call); growth inhibition, %; measured here: M. tuberculosis growth (absorbance);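 0% = vehicle and 100% = reference antibiotic; read after six days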
Numbers without * were called inactive; ? = inconclusive; . = not tested or not shown. Rows are unselected; overall some 3.9% were active at least once.

Screens by letter – A = PrP UTR inh; B = Sa RN4220 lethal; C = Autofluor counter; D = BJeLR lethal; E = Mtb hypoxia rep; F = Mtb hypoxia rep growth; G = ugtP null kill
O=C(Cn1ccc(C(F)(F)F)n1)NN=Cc1ccc2c(c1)OCO2
  A: . | B: 0.3 | C: . | D: . | E: 4 | F: 10 | G: 0
O=C(Nc1ccccc1)N1N=C(c2ccc(F)cc2)CC1c1ccc(F)cc1 (stereo not given)
  A: -17 | B: 7.5 | C: 2098 | D: 1 | E: 3 | F: -1 | G: -16
COCCn1c(C)cc(C(=O)CSc2nnnn2C2CCCC2)c1C
  A: 64* | B: -5.6 | C: 5613 | D: . | E: -6 | F: 5 | G: -9
CCCn1c(SCC(=O)c2ccc3c(c2)NC(=O)CO3)nc2ccccc21
  A: -21 | B: 0.7 | C: 2542 | D: 0 | E: 1 | F: -6 | G: -15
Cc1ccc(NC(=O)c2cc(S(=O)(=O)N3CCOCC3)cs2)cc1
  A: -3 | B: -3.0 | C: ? | D: 1 | E: 0 | F: 4 | G: -1
CC(=O)Nc1ccc(/C=C2/Sc3ccccc3C2=O)cc1
  A: -1 | B: 6.1 | C: 4570 | D: 4 | E: 10 | F: 4 | G: -1
COc1ccc(C2(O)CC3CCC(C2)N3c2nc(C)cc(C)c2C#N)cc1 (stereo not given)
  A: -13 | B: 1.9 | C: 4591 | D: -5 | E: . | F: . | G: 5
CCNS(=O)(=O)c1ccc(C)c(-n2cnnn2)c1C
  A: 1 | B: -1.0 | C: 3321 | D: 1 | E: . | F: . | G: 4
CCOC(=O)NN=Cc1ccc(N(CC)CC)cc1O
  A: . | B: 9.3 | C: . | D: . | E: 9 | F: -1 | G: 1
CC(C)(C)NC(=O)c1cccnc1Sc1ccccc1
  A: -8 | B: . | C: 3782 | D: 1 | E: . | F: . | G: .
CC1=C(C(=O)N(C)C)C(c2cccs2)NC(=O)N1 (stereo not given)
  A: -1 | B: 4.2 | C: 3275 | D: -6 | E: 6 | F: 1 | G: 7
COc1cc2ccccc2cc1C(=O)Nc1ccccc1N1CCCC1
  A: -12 | B: 2.8 | C: 5845 | D: -16 | E: 7 | F: 3 | G: 12
CCOc1ccc(CNS(=O)(=O)c2c(C)nc3scc(C)n3c2=O)cc1OC
  A: -4 | B: 1.6 | C: 3915 | D: -3 | E: 0 | F: -8 | G: 8
COc1ccc2c(C(=O)CCl)c[nH]c2c1
  A: -37 | B: 10 | C: 4785 | D: 6 | E: . | F: . | G: 1
Oc1c(Cl)cc(Cl)cc1C1=NNC(c2ccc(Cl)cc2)C1 (stereo not given)
  A: -27 | B: -2.0 | C: 2848 | D: . | E: 7 | F: 2 | G: -6
COc1ccc(-c2[nH]ncc2CN2CCN(Cc3cccs3)CC2)c(F)c1
  A: 7 | B: 6.9 | C: 4279 | D: 5 | E: 17 | F: 6 | G: 6
Cc1[nH]nc2c1C(C(C)C)C(C#N)=C(N)O2 (stereo not given)
  A: 10 | B: -3.3 | C: 3163 | D: -2 | E: 5 | F: 5 | G: -1
O=C(Cn1cnc([N+](=O)[O-])n1)NN=Cc1cccc(Cl)c1
  A: . | B: -5.1 | C: . | D: . | E: 8 | F: 2 | G: 15
O=C(NCc1nc2ccccc2[nH]1)c1ccc(S(=O)(=O)N2CCCC2)cc1
  A: -9 | B: 3.5 | C: 4699 | D: 2 | E: 8 | F: 0 | G: 4
CCC1CCCCN1C/C=C/c1ccccc1[N+](=O)[O-] (stereo not given)
  A: -11 | B: -0.2 | C: 20733* | D: -3 | E: -1 | F: 4 | G: -2
Cc1cc(-c2ccc([N+](=O)[O-])cc2)cc(C)n1
  A: -19 | B: 4.0 | C: 2884 | D: . | E: -1 | F: 2 | G: 9
Cn1cc(S(=O)(=O)NCC2CCCO2)c(=O)n(C)c1=O (stereo not given)
  A: -19 | B: 2.9 | C: 4834 | D: -21 | E: 1 | F: 3 | G: 1
COc1cccc(N(C(=O)c2ccn[nH]2)C2(C(=O)Nc3c(C)cccc3C)CCCCC2)c1
  A: -40 | B: -1.9 | C: 4396 | D: . | E: 3 | F: 7 | G: -4
COc1ccc(CNC(=O)CCSCc2cccc(Cl)c2)cc1
  A: -12 | B: -1.5 | C: 2539 | D: -1 | E: 3 | F: 7 | G: -5
CCOC(=O)c1c(NC(C)=O)sc2c(OCC(O)CNC(C)(C)C)c(Br)ccc12 (stereo not given)
  A: -39 | B: 2.2 | C: 2566 | D: 0 | E: -4 | F: -1 | G: 4
C=CCOc1ccc(C=Nn2cncn2)cc1OC
  A: . | B: 3.4 | C: . | D: . | E: 0 | F: 12 | G: -2
O=C(CNCc1ccncc1)Nc1cc(S(=O)(=O)N2CCCCC2)ccc1Cl
  A: -17 | B: 3.7 | C: 20589* | D: 6 | E: 10 | F: 14 | G: 3
O=C(Nc1ccc(Cc2ccncc2)cc1)c1ccc(Cl)c([N+](=O)[O-])c1
  A: -31 | B: -4.9 | C: 4931 | D: 8 | E: . | F: . | G: -15
O=[N+]([O-])c1ccc(/C=C/c2ccc3ccccc3n2)cc1
  A: 15 | B: 13 | C: 4172 | D: 15 | E: 8 | F: 0 | G: -4
O=C(CCCN1C(=O)/C(=C/c2cccs2)SC1=S)Nc1cccc(O)c1
  A: -9 | B: 9.8 | C: 5493 | D: -4 | E: 1 | F: 2 | G: 0
O=C(NCCc1ccccc1)C1CCC(Cn2c(=O)c3ccccc3n(Cc3cccc(F)c3)c2=O)CC1 (stereo not given)
  A: -15 | B: 3.6 | C: 2572 | D: -4 | E: -2 | F: 7 | G: 3
CCCCNc1nc(NC)nc(Cl)c1SC
  A: -16 | B: 6.7 | C: 2295 | D: -2 | E: 4 | F: -3 | G: 14
CCCCn1c(N)c(N(Cc2ccccc2OC)C(=O)COc2ccccc2OC)c(=O)[nH]c1=O
  A: -11 | B: 2.2 | C: ? | D: 5 | E: 3 | F: -1 | G: 4
O=C(NN=Cc1ccccc1O)C1CC(=O)N(c2ccc(Cl)cc2)C1 (stereo not given)
  A: . | B: -5.9 | C: . | D: . | E: 6 | F: -3 | G: 10
CSCCC(NS(=O)(=O)c1ccc(C)cc1)C(=O)N1CC=C(c2ccccc2)CC1 (stereo not given)
  A: -8 | B: 3.3 | C: 5215 | D: -9 | E: 4 | F: 1 | G: 9
CCN1CC(=O)Nc2cc(S(=O)(=O)N3CCOCC3)ccc21
  A: -17 | B: 3.0 | C: 4039 | D: -7 | E: 2 | F: 15 | G: 9
Cc1ccc(C)c(N2CCN(C(=O)c3cn(C)c4ccc(S(=O)(=O)N(C)C)cc4c3=O)CC2)c1
  A: -21 | B: 5.5 | C: 4637 | D: -9 | E: 2 | F: 8 | G: -1
O=C(NC1CCCC1)c1ccc(Cl)c(S(=O)(=O)N2CCOCC2)c1
  A: -15 | B: 3.6 | C: 6923 | D: 5 | E: 2 | F: -4 | G: 4

Four compounds from above with just ugtP null kill, Sa RN4220 lethal and Autofluor counter.
smiles	ugtP null kill	Sa RN4220 lethal	Autofluor counter
CCCn1c(SCC(=O)c2ccc3c(c2)NC(=O)CO3)nc2ccccc21	-15	0.7	2542
CCOc1ccc(CNS(=O)(=O)c2c(C)nc3scc(C)n3c2=O)cc1OC	8	1.6	3915
O=C(CCCN1C(=O)/C(=C/c2cccs2)SC1=S)Nc1cccc(O)c1	0	9.8	5493
CCC1CCCCN1C/C=C/c1ccccc1[N+](=O)[O-] (stereo not given)	-2	-0.2	20733*

Quoted from the results shown for reference:
Screens by letter – A = PrP UTR inh; B = Sa RN4220 lethal; C = Autofluor counter; D = BJeLR lethal; E = Mtb hypoxia rep; F = Mtb hypoxia rep growth; G = ugtP null kill
CCN1CC(=O)Nc2cc(S(=O)(=O)N3CCOCC3)ccc21
  A: -17 | B: 3.0 | C: 4039 | D: -7 | E: 2 | F: 15 | G: 9
Cc1ccc(C)c(N2CCN(C(=O)c3cn(C)c4ccc(S(=O)(=O)N(C)C)cc4c3=O)CC2)c1
  A: -21 | B: 5.5 | C: 4637 | D: -9 | E: 2 | F: 8 | G: -1
O=C(NC1CCCC1)c1ccc(Cl)c(S(=O)(=O)N2CCOCC2)c1
  A: -15 | B: 3.6 | C: 6923 | D: 5 | E: 2 | F: -4 | G: 4

From PubChem BioAssay
